GALR2 ag: GALR2 (human) receptor agonism. O43603. GALR2-expressing cells, agonist activation read-out. activation, %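 (tested at 5 µM)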. hit rate 0.48% among 140,000;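 active = above mean plus 3 SD of all compounds, about 5% in these data, not always enough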;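 note: 0% = vehicle buffer wells and 100% = reference agonist at full effect; tested in CHO reporter cells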
INS promoter inh: TRM-6 insulin promoter activity inhibition. inhibition, % at 2 µM. AID 1273. TRM-6 cells (human fetal islet line), insulin promoter-eGFP reporter, imaging; reporter expression induced with tamoxifen. hit rate 0.9% among 130,000;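 active = inhibition above the mean plus 3 SD, with well images judged a real hit on visual review, cut at about 60% in these data, passing the limit was not always enough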
PKD1 kinase inh: PKD1 (human) kinase inhibition. Q15139. PKD1 kinase fluorescence polarization assay. inhibition, %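 (about 10 µM by stock and volumes)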. hit rate 0.056% among 200,000;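 active = inhibition of 50% or more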;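 note: controls were vehicle for no effect and a reference inhibitor for full effect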
Target sequence (Q15139 whole entry, looked up): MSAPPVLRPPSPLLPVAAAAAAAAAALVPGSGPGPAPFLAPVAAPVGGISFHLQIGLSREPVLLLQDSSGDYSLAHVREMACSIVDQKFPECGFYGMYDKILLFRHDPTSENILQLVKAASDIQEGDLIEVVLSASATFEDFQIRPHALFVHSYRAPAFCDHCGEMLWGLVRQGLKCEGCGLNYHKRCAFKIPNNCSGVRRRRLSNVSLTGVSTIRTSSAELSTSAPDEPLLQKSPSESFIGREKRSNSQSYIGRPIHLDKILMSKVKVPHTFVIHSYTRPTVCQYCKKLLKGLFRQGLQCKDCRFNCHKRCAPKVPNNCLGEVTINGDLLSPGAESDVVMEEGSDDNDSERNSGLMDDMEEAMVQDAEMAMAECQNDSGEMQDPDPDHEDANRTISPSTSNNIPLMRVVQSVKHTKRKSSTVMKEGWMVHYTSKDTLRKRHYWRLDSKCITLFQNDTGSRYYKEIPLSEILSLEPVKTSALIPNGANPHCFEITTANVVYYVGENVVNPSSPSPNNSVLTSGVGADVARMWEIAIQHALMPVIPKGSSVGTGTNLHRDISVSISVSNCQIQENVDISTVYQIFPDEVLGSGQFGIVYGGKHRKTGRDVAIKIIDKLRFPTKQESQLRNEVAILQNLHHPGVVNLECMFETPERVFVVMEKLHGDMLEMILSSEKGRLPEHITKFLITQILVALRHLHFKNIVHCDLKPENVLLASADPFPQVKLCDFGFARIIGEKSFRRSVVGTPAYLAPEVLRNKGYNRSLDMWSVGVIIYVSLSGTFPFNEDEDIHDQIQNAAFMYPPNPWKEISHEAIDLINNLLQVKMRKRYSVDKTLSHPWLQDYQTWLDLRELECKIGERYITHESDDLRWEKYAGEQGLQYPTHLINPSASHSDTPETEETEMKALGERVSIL
RGS16-Gao HTS: modulates binding between human RGS16 and Galphao | binding response (% of control), % at 10 µM | hit rate 0.38% among 220,000 | bead-based flow cytometry RGS16-Galphao binding, fluorescence; actives lie on both sides;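 active = below 25% or above 175%, edge rows of some plates excepted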;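 note: Galphao activated by GDP with aluminum fluoride before binding; 100% = wells without compound and 0% = beads without RGS; some results beyond the cut were filed as inactive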
HSV replic up: HSV replication enhancement. HSV replication augmentation in cells, fold increase. maximum fold increase. hit rate 0.005% among 220,000. AID 1956;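 active = peak rise of 1.5-fold or more in the series; tested in PC3 cells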;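 note: first round at 10 µM; read as green reporter fluorescence; hits show the peak of a series up to 25 µM; 1 = signal of infected wells without compound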
INS promoter inh cell count: also measured in INS promoter inh; calls as there; normalized cell count, %; measured here: cell count, toxicity; reference of the scale not given here;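 cells exposed to compound for 48 h; stained nuclei by imaging scaled within each plate; lower means fewer cells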
HSV replic up primary fold: second read-out of HSV replic up, no call of its own (marks repeat the call); fold increase; compound at 10 µM; measured here: primary screen fold increase 10 uM; tested in PC3 cells;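 GFP signal in the first replicate; 1 = infected wells without compound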
* = called active by the depositor; i = inactive; · = not tested or not shown; [ ] = remark or other dose.

SMILES	GALR2 ag	INS promoter inh	INS promoter inh cell count	PKD1 kinase inh	RGS16-Gao HTS	HSV replic up	HSV replic up primary fold
COc1cccc(/C=N/NC(=O)CN2C(=O)NC3NC(=O)NC32)c1 (centres undefined)	-0.6	-6.5	94.0	-4.1	104.1	i	0.93
O=C(Nc1ccccc1Cl)Oc1ccc(Cl)cc1Cl	·	·	·	·	114.5	i	0.94
Cc1cccc(C)c1NC(=O)Nc1ccc(S(N)(=O)=O)cc1	·	·	·	·	88.8	i	0.97
COC(=O)c1cc(C(=O)N(Cc2ccccc2)c2ccccn2)cc([N+](=O)[O-])c1	0.0	-30.2	105.8	-5.1	106.5	i	0.99
CC(=O)NC(Cc1c[nH]c2ccccc12)C(=O)N/N=C/c1ccccc1 (centres undefined)	·	·	·	-7.2	101.0	i	0.96
CCOc1ccc(CCNC(=O)c2cc3ccccn3n2)cc1OCC	1.1	·	·	3.4	144.7	i	1.01
CCCCc1n[nH]c2c1/C(=N/O)CC(C)(C)C2	-4.5	0.0	164.2	2.5	34.5	i	0.973
COC(=O)c1ccc(Cc2ccccc2)o1	-2.0	92.9*	83.1*	-8.2	111.3	i	0.86
Cc1cc2n(n1)C(c1sccc1C)Nc1ccccc1-2 (centres undefined)	-1.2	·	·	1.1	99.4	i	0.8
O=C1C2C3C=CC(O3)C2C(=O)N1CC(O)c1ccccc1 (centres undefined)	-2.7	-27.3	135.8	3.3	140.0	i	0.9
CN1/C(=C\C(=O)COc2ccc3c(c2)OCO3)C(C)(C)c2ccccc21	-2.9	-36.4	60.1	4.8	96.8	·	·
COCc1cc(=O)n2c([nH]c3ccccc32)c1C#N	1.6	·	·	-6.9	96.4	i	0.9
CCOC(=O)c1ccccc1OCc1cc(/C=N/NC(=O)c2cccnc2)ccc1OC	·	·	·	·	98.9	i	0.72
O=C(N/N=C1\C2CN3CCN(C2)CC1(c1ccccc1)C3)Nc1ccccc1	·	·	·	-5.9	101.8	i	0.93
O=C(COC(=O)c1ccccc1OCC(=O)Nc1ccc(Br)cc1)Nc1ccccc1	-1.2	46.0	104.5	-1.7	95.8	i	1.14
S=C(NCc1ccco1)N1CCN(C/C=C/c2ccccc2)CC1	·	·	·	2.2	99.7	i	0.93
CCCNS(=O)(=O)c1ccc2c(c1)n(C)c(=O)n2C	·	·	·	-0.6	107.3	i	1.03
COc1cc(NC(=O)CCc2ccccc2)c(C(=O)O)cc1OC	-1.5	5.3	72.7	-9.5	103.5	i	1.03
N#Cc1ccc(Nc2ccccc2)c(N)c1	-1.9	33.3	100.0	3.1	82.6	i	0.88
COc1ccc(Cc2nnc(N/N=C/c3ccc(C)o3)[nH]c2=O)cc1	·	-21.4	82.7	2.9	98.3	i	1.1
COC(=O)c1c(-c2ccccc2)noc1C	·	34.8	119.7	2.2	98.7	i	0.92
Cc1cc(C)nc(NC(=O)c2cccc([N+](=O)[O-])c2)c1	1.3	0.0	118.6	2.3	100.0	i	0.95
CCOc1ccc(N2C(=O)C(=O)/C(=C(/O)c3ccccc3)C2c2ccccc2[N+](=O)[O-])cc1 (centres undefined)	·	·	·	·	94.1	i	0.99
O=C(O)CCCCCNCc1c(Cl)cccc1Cl	·	·	·	·	100.9	i	0.94
CNC(=O)/C(C#N)=C/c1cccc(Oc2ccccc2)c1	·	·	·	·	105.1	i	0.91
COc1cccc(OC)c1Nc1nc(C)nc2c1nnn2Cc1ccccc1Cl	·	·	·	-3.8	102.7	i	0.96
Cc1cccc2sc(N(CCCN(C)C)C(=O)c3sc4ccccc4c3Cl)nc12	0.1	·	·	-5.6	104.5	i	0.88
O=c1[nH]c2cc3c(cc2cc1CN(Cc1cccnc1)Cc1nnnn1Cc1ccco1)OCCO3	1.3	·	·	-4.2	92.4	i	1.06
CSc1nc2c(c(=O)[nH]1)C(c1ccc(Br)cc1)CC(=O)N2 (centres undefined)	·	·	·	-7.7	104.1	i	1.01
COc1ccc(CN2CCC(c3nc4ccc(Cl)cc4[nH]3)CC2)cc1	·	52.4	61.9	-5.0	102.0	i	1
COc1ccc(N2CCN(C(=O)Cn3nnc(-c4ccc(OC)c(OC)c4)n3)CC2)cc1	-1.3	·	·	-6.0	36.0	i	0.93
CC(C(=O)Nc1ccc2c(c1)OCCO2)c1ccc([N+](=O)[O-])cc1 (centres undefined)	-0.2	-31.0	126.4	-5.8	104.9	i	0.97
O=C(CSc1ncn[nH]1)Nc1ccc(S(=O)(=O)N2CCCC2)cc1	-0.5	16.7	149.3	0.9	103.1	i	0.99
O=C(O/N=C\c1ccc(N2CCCCC2)c([N+](=O)[O-])c1)c1c(F)cccc1F	0.4	11.1	130.7	-9.3	107.8	i	1.02
CN1C(=O)c2ccc(NC(=O)C3CCCCC3)cc2C1=O	-1.8	-28.6	98.4	8.5	100.7	i	1.15
CCOC(=O)c1c(NC(=O)CNCC(O)CO)sc(C)c1C (centres undefined)	0.6	-14.3	110.2	-0.1	102.1	i	0.93
COc1ccc(OC)c(NC(=O)CN(c2ccc(C)cc2)S(=O)(=O)c2c(C)noc2C)c1	6.9*	·	·	-9.1	117.4	i	0.9
CCC1(CC)NC(=O)N(CC(=O)OCC(=O)Nc2ccc(C(F)(F)F)cc2)C1=O	-1.2	-6.9	91.6	-16.4	97.4	·	·
C=C(C)CNC(=S)NNC(=O)CCn1c2cc(Cl)ccc2c2ccc(Cl)cc21	-0.6	·	·	-0.7	84.9	i	0.9
COc1ccc(/C=N/NC(=O)CSc2ccccn2)cc1OC	·	·	·	·	97.8	i	0.94
CN(C1CC(C)(C)N(O)C(C)(C)C1)S(=O)(=O)CC12CCC(CC1=O)C2(C)C (centres undefined)	·	·	·	5.9	100.8	i	1.03
CCN(CC)S(=O)(=O)c1cccc(C(=O)N/N=C2\CC(=O)CC(C)(C)C2)c1	·	·	·	5.3	97.9	i	1.31
CC(C)(CN1CCN(Cc2ccccc2)CC1)NS(=O)(=O)c1ccccc1	·	·	·	·	104.2	i	1.01
Cc1ccc(-c2cc(C(=O)NCC3CCCO3)c3ccccc3n2)cc1C (centres undefined)	·	-27.8	51.5	-0.8	108.6	i	0.89
C=CCNS(=O)(=O)c1sccc1/C=N/O	-0.7	·	·	4.0	100.3	i	0.83
CCOc1cccc(CNCCO)c1OCc1ccc(Cl)cc1Cl	-0.2	·	·	-3.2	89.6	i	0.97
CC(C)(C)c1ccc(/C=C2\Oc3c(ccc(O)c3CN3CCN(CCO)CC3)C2=O)cc1	·	·	·	·	98.9	i	1.25
CN(CC(=O)NC1CCCCC1)S(=O)(=O)c1cccc2nsnc12	-1.9	42.9	168.3	-9.7	90.4	i	1
CC(C)N1C(=O)C2C(C(=O)NC3CCCCC3)C3C=CC2(O3)C1C(=O)NC1CCCCC1 (centres undefined)	-1.0	-7.1	95.2	8.7	98.7	i	0.9
CCCCCCCCCCCCCCCC(=O)OC[C@H](COP(=O)([O-])OCC[N+](C)(C)C)OC(=O)CCCCCCCCCCCCCCC	-0.7	4.8	73.0	-12.0	106.3	i	0.68
CC1(C)CC2(CCO1)OC(=O)CC2C(=O)NCc1ccccc1 (centres undefined)	-2.0	-40.0	42.0	-3.3	106.1	i	1.25
C=CCOc1nc2c(c(=O)n(C)c(=O)n2C)n1Cc1ccccc1Cl	-2.3	-27.8	92.2	-4.1	124.0	i	0.74
Cc1ccc(C(=O)N/C(=C\c2cccs2)C(=O)NCCc2c[nH]c3ccccc23)cc1	-0.3	48.1	147.6	-4.1	101.9	i	1.1
COc1ccc(-c2nnc(SCC(C)C)o2)cc1	·	·	·	·	105.8	i	0.85
CN(C)c1ccc(C=NCC2(O)CCOC(C)(C)C2)cc1 (centres undefined)	-1.6	·	·	-5.9	109.0	i	1.04
CCCCOC(=O)c1ccc(NC(=O)c2c(OC)cccc2OC)cc1	·	·	·	9.9	73.8	i	1.12
O=C(c1cnc(-c2ccccc2)s1)c1ccc(Cl)cc1Cl	-0.7	-20.0	144.1	-0.7	99.6	i	0.74
O=C(CCc1ccc(S(=O)(=O)NC2CCCCC2)cc1)Nc1ccccc1	-1.8	-3.3	135.1	3.7	102.1	i	0.86
CCN(CC)S(=O)(=O)c1cc(OC)c(Cl)cc1OC	·	·	·	-8.1	99.7	i	1.09
CC(C)N(NC(=O)c1cccc2ccccc12)C(C)C	·	-100.0	121.9	-4.7	175.0*[activator]	i	0.88
Going on with the list.
SMILES	GALR2 ag	INS promoter inh	INS promoter inh cell count	PKD1 kinase inh	RGS16-Gao HTS	HSV replic up	HSV replic up primary fold
Cc1[nH]c2ccccc2c1/C=N/NC(=O)CNC(=O)COc1ccccc1	·	-20.0	123.0	-0.9	96.4	i	0.95
CCN1CCN(C(=O)Nc2ccc(Cc3ccc(NC(=O)N4CCN(CC)CC4)cc3)cc2)CC1	-1.0	·	·	-20.6	100.8	i	0.78
NC(=O)c1ccc(NC(=O)COC(=O)/C=C/c2cn(-c3ccccc3)nc2-c2cccnc2)cc1	0.8	0.0	149.7	-14.6	95.6	i	1.05
COC(=O)Cc1csc(Nc2ccccc2)n1	-0.5	0.0	114.0	-1.7	101.5	i	1.01
O=C(Nc1ccc(C(F)(F)F)cc1)C1CC(=O)N(c2ccc3c(c2)OCCO3)C1 (centres undefined)	-1.4	-46.1	89.0	-5.0	102.0	i	1.11
NNC(=S)Nc1c(F)cc(F)cc1Br	·	·	·	·	112.7	i	1.27
CC(NC(=O)c1ccc(CS(=O)(=O)c2ccc(Cl)cc2)o1)c1ccc2c(c1)OCCO2 (centres undefined)	-3.5	-25.0	146.9	-15.3	112.9	i	0.88
CSc1cccc(NS(=O)(=O)c2ccc(C(C)=O)cc2)c1	·	·	·	·	103.2	i	0.92
COc1c2ccoc2c(OCC=C(C)C)c2oc(=O)ccc12	-0.4	33.3	84.9	-7.2	97.3	i	1.09
O=C(OCc1ccccc1)N1CCCC1/C=C/CN1CCOCC1 (centres undefined)	·	·	·	-3.8	108.2	i	1.1
O=[N+]([O-])c1ccccc1SNc1ccc(Br)cn1	·	31.2	126.7	-3.6	101.2	i	1.02
CCOc1cc(-c2nc(-c3ccccc3)c(-c3cc([N+](=O)[O-])ccc3C)[nH]2)ccc1O	-0.7	-29.7	72.3	-0.4	101.6	i	0.78
CCCN(CCC)c1ccc(CC(=O)NC(C)Cc2ccccc2)cc1 (centres undefined)	-1.1	-17.2	112.0	-5.3	98.3	i	0.99
c1ccc(-c2c[nH]c3[n+]2CCCCC3)cc1	0.0	-8.5	116.0	-2.1	100.1	i	0.87
C/C=C/COC(=O)c1[nH]c2c(c1C)C(=O)CC(c1ccc(N(C)C)cc1)C2 (centres undefined)	0.1	0.0	97.9	-3.4	102.5	i	0.95
Cc1cc(OCC(=O)Nc2ccc3c(c2)OCCO3)cc(C)c1Cl	-1.9	-8.6	87.7	3.8	101.3	i	0.98
CCCc1nc2cc(Cl)c([N+](=O)[O-])cc2o1	·	·	·	-6.1	98.6	i	0.98
O=C(CSc1nccn1-c1cccc(Cl)c1)NO	·	·	·	-8.2	104.6	i	0.92
C/C=C/C(=O)OCC(=O)Nc1ccc(OC)c(Cl)c1	-0.4	43.8	160.7	-0.8	95.3	i	0.86
NC(=O)c1c[nH]c2ccccc12	·	·	·	-2.3	98.0	i	1.06
O=C(O)COc1ccccc1/C=N/NC(=O)CSc1nnc(SCc2ccccc2)s1	·	·	·	·	103.8	i	0.98
CC(NC(=O)COC(=O)c1ccc2c(c1)OCO2)c1ccccc1 (centres undefined)	·	-33.3	106.8	-8.0	106.3	i	0.94

Reformatted as labelled records: part of the list above.
C/C=C/C(=O)OCC(=O)Nc1ccc(OC)c(Cl)c1
- GALR2 ag: -0.4
- INS promoter inh: 43.8
- INS promoter inh cell count: 160.7
- PKD1 kinase inh: -0.8
- RGS16-Gao HTS: 95.3
- HSV replic up: i
- HSV replic up primary fold: 0.86

O=C(CSc1nccn1-c1cccc(Cl)c1)NO
- GALR2 ag: ·
- INS promoter inh: ·
- INS promoter inh cell count: ·
- PKD1 kinase inh: -8.2
- RGS16-Gao HTS: 104.6
- HSV replic up: i
- HSV replic up primary fold: 0.92

O=C(O)COc1ccccc1/C=N/NC(=O)CSc1nnc(SCc2ccccc2)s1
- GALR2 ag: ·
- INS promoter inh: ·
- INS promoter inh cell count: ·
- PKD1 kinase inh: ·
- RGS16-Gao HTS: 103.8
- HSV replic up: i
- HSV replic up primary fold: 0.98

CCCc1nc2cc(Cl)c([N+](=O)[O-])cc2o1
- GALR2 ag: ·
- INS promoter inh: ·
- INS promoter inh cell count: ·
- PKD1 kinase inh: -6.1
- RGS16-Gao HTS: 98.6
- HSV replic up: i
- HSV replic up primary fold: 0.98

Screening results from PubChem BioAssay.
